Arbovirus anti – blocks arbovirus infection; arbovirus infection cell-based antiviral screen; inhibition, % at 10 µM; 0.37% of 200,000 active;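 active means inhibition from about 30%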;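 further: bluetongue infection of BSR cells; cell survival read as ATP light after 72 h; 0% = infected wells without compound and 100% = uninfected wells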
Mtb bLac sens – beta-lactam sensitization of Mtb H37Rv; M. tuberculosis H37Rv growth with meropenem, percent inhibition; hits of this screen are not shown here; inhibition, % at 25 µM; 0.27% of 330,000 active; AID 434955;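 active means about 74% or more and at least 40 points above the plate without the antibiotic, then above 30% in a dose series; inconclusive means first-round hits that could not be retested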;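 further: growth measured after seven days incubation then overnight dye step; 0% = bacteria only wells and 100% = bacteria with antibiotic; twin plates without the antibiotic show which effects depend on it; some results filed as inactive read as strong as hits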
YopH inh – YopH (Yersinia) phosphatase inhibition. fluorescence Ex485/Em525. inhibition, %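 (about 10 µM by stock and volumes)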. 0.16% of 140,000 active. AID 898;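 active means inhibition of 50% or more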;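 further: controls were vehicle for no effect and minimum signal wells for full effect; inactives centre near -20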
Mtb growth – M. tuberculosis H37Rv growth inhibitors, H37Rv strain (AID 1626) | M. tuberculosis H37Rv growth inhibition; higher % means a stronger effect | inhibition, % at 10 µM, or IC50 in µM where a hit was titrated | 0.95% of 220,000 active;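 active means confirmed in a dose series; inconclusive means inhibition above 80% but not taken into the dose series; inactive means below 80% or under 30% at every dose of the series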;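 further: bacteria incubated seven days before Alamar blue readout; 0% = bacteria only wells and 100% = bacteria with antibiotic wells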
RecA splice inh – inhibitors of M. tuberculosis RecA intein splicing | P9WHJ3 | cell-free RecA intein splicing, fluorescence | inhibition, %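 (about 9 µM by stock and volumes)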 | 0.75% of 290,000 active | AID 2221; in the data active means inhibition above about 30%; inconclusive means no clear call, values can overlap the other calls;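 further: 0% = vehicle wells and 100% = reference inhibitor control wells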
Target sequence (P9WHJ3 whole entry, looked up, canonical isoform): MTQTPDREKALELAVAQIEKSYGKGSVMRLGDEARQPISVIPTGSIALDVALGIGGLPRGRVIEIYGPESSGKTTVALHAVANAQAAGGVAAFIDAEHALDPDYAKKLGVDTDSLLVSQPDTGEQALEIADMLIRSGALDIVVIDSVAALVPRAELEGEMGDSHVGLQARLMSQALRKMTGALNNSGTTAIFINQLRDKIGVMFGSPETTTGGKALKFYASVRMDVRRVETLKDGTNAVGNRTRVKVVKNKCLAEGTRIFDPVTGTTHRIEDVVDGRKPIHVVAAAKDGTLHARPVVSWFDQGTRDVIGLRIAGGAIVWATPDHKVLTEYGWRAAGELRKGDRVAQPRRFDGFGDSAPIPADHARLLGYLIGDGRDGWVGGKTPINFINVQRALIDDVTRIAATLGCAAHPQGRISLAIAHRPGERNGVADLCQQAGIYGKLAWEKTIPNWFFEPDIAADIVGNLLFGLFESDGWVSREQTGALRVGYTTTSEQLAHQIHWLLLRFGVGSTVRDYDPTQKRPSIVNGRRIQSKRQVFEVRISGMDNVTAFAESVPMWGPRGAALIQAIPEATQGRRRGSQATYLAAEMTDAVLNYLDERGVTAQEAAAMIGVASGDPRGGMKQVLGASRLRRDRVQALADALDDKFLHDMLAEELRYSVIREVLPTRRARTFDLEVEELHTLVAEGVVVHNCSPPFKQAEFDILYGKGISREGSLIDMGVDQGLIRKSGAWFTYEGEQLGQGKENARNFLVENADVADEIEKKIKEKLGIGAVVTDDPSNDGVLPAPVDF
Arbovirus anti repeat – further read-out of Arbovirus anti, marked with its call; inhibition, %; measured here: 10K subset replicate screen; many hits read low in the repeat;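 first of two repeat runs on a subset; 0% = infected and 100% = uninfected wells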
The depositor's hits bear a star; ? = inconclusive; nt = no result given. Not all compounds are listed; the hit share may differ from the screen's.

SMILES	Arbovirus anti	Mtb bLac sens	YopH inh	Mtb growth	RecA splice inh	others
Cc1cc(OC(C)C(=O)Nc2ccc(S(=O)(=O)Nc3onc(C)c3C)cc2)cc(C)c1Cl (stereo not drawn)	nt	-1.9	nt	nt	7.3
O=C(COc1c(Br)cc(Br)c2cccnc12)Nc1ccccc1F	-4.9	3.6	nt	40.6%	nt
O=S(=O)(/N=C(/Nc1ccc(F)cc1F)c1ccccc1)c1ccc(Br)cc1	4.8	6.4	-33.2	-3.3%	5.0
Cn1c(=O)c2nc(-c3ccccc3)c(-c3ccccc3)nc2n(C)c1=O	nt	1.3	nt	nt	-3.9
CCc1cccc2[nH]c3cc([N+](=O)[O-])ccc3c12	nt	-2.3	nt	5.8%	1.1
O=C(O)CCc1ccc(S(=O)(=O)N2CCOCC2)cc1	8.3	-6.2	-0.8	-15.8%	0.3
CC(=O)NC(Cc1cccc(F)c1)C(=O)NC1CCN(C(=O)c2cccc(C)c2)CC1 (stereo not drawn)	0.3	0.0	nt	-6.0%	-5.0
CCCCC(=O)NC(Nc1sc2c(c1C(N)=O)CCCC2)(C(=O)OCC)C(F)(F)F (stereo not drawn)	11.9	2.5	-35.8	-4.4%	-3.8
O=C(COC(=O)C1(c2ccc(F)cc2)CCCC1)Nc1ncc(C(F)(F)F)cc1Cl	6.3	-5.1	-19.7	-0.3%	5.6
CCOC(=O)N1CCC(O)(c2cc(C)c(C)cc2C)CC1	8.1	-4.1	-4.7	-4.6%	2.3
C#CCOCCOCCOCCNc1nc(N2CCN(C(=O)[C@H](CCCCN)n3cc(C(N)CO)nn3)CC2)nc(N2CCN(C(=O)[C@H](CCC(=O)O)n3cc(C(N)[C@H](C)CC)nn3)CC2)n1 (stereo partly drawn)	8.9	-16.1	nt	nt	1.5
COc1ccc(-n2c(Cc3cccs3)nnc2SCC(=O)Nc2ccc3c(c2)OCCO3)cc1	23.4	-11.8	-41.8	-1.0%	4.3
CCOC(=O)c1ccc(CNC(=O)CSc2nc(NC(=O)c3ccccc3)c3c(C)c(C)oc3n2)cc1	-6.4	2.7	-20.1	-2.1%	0.9
CCc1nnc(NC(=O)CN2CCC(O)(c3ccccc3OC)CC2)s1	-1.6	3.3	-39.1	-1.3%	-1.0
O=C(CNc1ccc(F)cc1)N/N=C1\CCCc2ccccc21	4.6	-7.1	nt	-6.6%	1.3
CCOc1ccc(CCNC(=O)c2cnccn2)cc1OCC	nt	6.8	nt	nt	-2.6
CCOC(=O)C(NC(=O)c1ccccc1)(OCC1(CC)COC1)C(F)(F)F (stereo not drawn)	5.3	-3.3	-128.6	-6.9%	4.6
CC1Cc2cc(S(=O)(=O)N3CCC(C(=O)N(C)Cc4ccco4)CC3)ccc2N1C(=O)C1CCC1 (stereo not drawn)	nt	-3.5	nt	nt	0.6
O=C(c1cccc(NS(=O)(=O)c2ccccc2)c1)N1CCCCC1	nt	1.7	nt	nt	2.5
O=C(CN1C(=O)NC2(CCc3ccccc3C2)C1=O)Nc1ccc(F)cc1 (stereo not drawn)	1.4	-2.3	-30.4	-6.7%	-1.2

Sorted by count of non-hydrogen atoms (falling): 3 of the compounds above.
SMILES	Arbovirus anti	Mtb bLac sens	YopH inh	Mtb growth	RecA splice inh	others
C#CCOCCOCCOCCNc1nc(N2CCN(C(=O)[C@H](CCCCN)n3cc(C(N)CO)nn3)CC2)nc(N2CCN(C(=O)[C@H](CCC(=O)O)n3cc(C(N)[C@H](C)CC)nn3)CC2)n1 (stereo partly drawn)	8.9	-16.1	nt	nt	1.5
CC1Cc2cc(S(=O)(=O)N3CCC(C(=O)N(C)Cc4ccco4)CC3)ccc2N1C(=O)C1CCC1 (stereo not drawn)	nt	-3.5	nt	nt	0.6
O=C(COc1c(Br)cc(Br)c2cccnc12)Nc1ccccc1F	-4.9	3.6	nt	40.6%	nt

(continued)
SMILES	Arbovirus anti	Mtb bLac sens	YopH inh	Mtb growth	RecA splice inh	others
Cc1ccccc1COc1ccc(/C(O)=C2/C(=O)C(=O)N(CCCn3ccnc3)C2c2ccco2)cc1 (stereo not drawn)	nt	nt	nt	-14.2%	4.1
Cc1noc(C)c1C(=O)Nc1sc(C)c(-c2ccccc2)c1C#N	7.7	15.5	-31.2	4.7%	0.5
O=C1C(CCCNC(=S)NCc2ccccc2)NC(=S)N1Cc1ccccc1 (stereo not drawn)	18.0	5.4	-13.6	9.3%	3.4
CCn1nc(C)c(CNC(=O)C2CCC(=O)N(CCc3ccc(OC)cc3)C2)c1C (stereo not drawn)	nt	2.5	nt	nt	-1.6
Cn1c(NC(=O)c2ccccc2C(F)(F)F)cc(=O)n(C)c1=O	2.7	0.1	nt	7.5%	1.5	Arbovirus anti repeat=11.0
C=CCNC(=S)NNc1nc2c(c(=O)[nH]1)C1(CCCCC1)Cc1ccccc1-2	-43.8	-3.9	-10.4	-16.8%	0.8
CC(Nc1cc(N2CCCC2)ccc1[N+](=O)[O-])c1ccccc1 (stereo not drawn)	-5.1	13.9	-27.5	8.5%	-9.6
Cc1ccccc1C(=O)NC1CCCN(Cc2ccccc2F)C1 (stereo not drawn)	nt	-2.7	nt	nt	-1.4
COc1ccc(CCNC(=O)c2cc3c(=O)n4cccc(C)c4nc3n(CC3CCCO3)c2=N)cc1 (stereo not drawn)	nt	18.3	nt	nt	1.7
COc1ccc(OCC(=O)NNC(=S)NC(=O)c2ccc([N+](=O)[O-])cc2)cc1	nt	52.4	nt	nt	-1.0
CCOC(=O)c1nc(-c2ccccc2)sc1C(C)=O	nt	2.0	nt	-10.8%	1.6
CSCC[C@H](NC(=O)NCCC1=CCCCC1)C(=O)O	5.2	0.6	-20.8	-7.8%	2.3
CCCn1c2ccccc2c2cnn(CC(=O)NC3CCCC(C)C3C)c(=O)c21 (stereo not drawn)	nt	-3.7	nt	nt	-0.2
Cc1ccc(S(=O)(=O)N(CC(=O)Nc2ccccc2C(=O)O)c2ccccc2)cc1	0.4	-4.8	nt	2.6%	1.6
CCOC(=O)C1=C(C)NC2=C(C(=O)OC2)C1c1ccccc1 (stereo not drawn)	-15.9	2.0	nt	8.2%	-0.9
CC(C)(C)c1ccc(/C=C/C(=O)N2CCCCC2)cc1	2.2	nt	nt	39.1%	2.8
COCCn1c(SCC(=O)N2CCC(C)CC2)nc2c(c1=O)SCC2	nt	-3.9	nt	nt	-0.4
Cc1ccc(N2CC(C(=O)NC3=NCCS3)CC2=O)cc1 (stereo not drawn)	5.1	0.4	-4.2	-14.7%	-5.7
CCOC(=O)C1=C(COC(=O)/C=C/c2ccccc2F)NC(=O)NC1C (stereo not drawn)	nt	0.3	nt	nt	-2.2
CCCCNC(=O)c1cc(-c2ccc(OC)c(OC)c2)on1	0.1	-0.2	-15.0	11.1%	-8.3	Arbovirus anti repeat=2.6
CCOC(=O)[C@@H]1[C@H]2COc3ccccc3[C@H]2N2C(=O)N(c3ccc(Cl)cc3)C(=O)[C@@]12C	nt	92.1	nt	nt	7.9
COc1cccc2cc(C(=O)NCc3ccc(Cl)cc3)c(=N)oc12	nt	66.2	nt	nt	-0.6
CCc1cc(C(=O)OC)c(NC(=O)CC2SC(=NC)N(C)C2=O)s1 (stereo not drawn)	-2.8	7.0	nt	-0.8%	2.6
CCN(CC)c1ccc(S(=O)(=O)N2CCOCC2)cc1NC(=O)CN1C(=O)NC2(CCCC2)C1=O	nt	-11.9	nt	nt	-3.2
O=C(NCCO)C(=O)NCC(c1ccc2c(c1)OCO2)N1CCN(c2ccc(F)cc2)CC1 (stereo not drawn)	nt	2.3	nt	nt	3.3
COc1ccc(CN2[C@@H](CC(=O)O)c3ccccc3S2(=O)=O)cc1	nt	-2.6	nt	-10.9%	-3.9
CCc1ccc2[nH]c(C)c(CN3CCCCCC3)c(=O)c2c1	nt	-3.6	nt	nt	-1.4
O=C(c1cccnc1)N1CCCC(Nc2ccc(F)cc2)C1 (stereo not drawn)	nt	-2.9	nt	nt	-0.2
N#CC1=C(N)C(C#N)(C#N)C(c2cccnc2)C2COCC=C12 (stereo not drawn)	4.0	-8.2	6.3	-4.0%	2.6
N#CC1=C(N)SC(N)=C(C#N)C1c1cccc(Oc2ccccc2)c1	-19.7	-4.0	-8.3	-1.3%	6.0
O=C(Nc1ccccc1N1CCCCC1)c1cccc(OC(F)F)c1	nt	12.4	nt	nt	13.2
Cc1ccccc1C(=O)Nc1ccc2nc3n(c(=O)c2c1)CCC3	-2.3	-3.6	-50.4	1.1%	-1.2	Arbovirus anti repeat=-6.5
O=C(NC1CCCCC1)C(c1ccccc1)N1CCC2(CC1)OCCO2 (stereo not drawn)	2.1	-10.1	-14.4	-8.9%	-28.1	Arbovirus anti repeat=6.4
O=C(Nc1nccs1)c1ccc(Cl)c(S(=O)(=O)N2CCCCC2)c1	8.5	-12.6	-11.4	-2.3%	2.4
COc1ccc(-c2nc3cc(NC(=O)c4ccc5c(c4)OCO5)ccc3o2)cc1	-7.7	-0.2	-20.5	-7.8%	nt
CC(=O)c1c(C)nc(-c2ccc(Cl)cc2)nc1NC(=O)C(C)C	2.4	-1.3	-8.9	-6.8%	-1.0
COc1ccc(/C=C/C(=O)Nc2cccc(S(=O)(=O)N3CCCC3)c2)cc1OC	23.2	2.4	nt	0.6%	-0.3
CC1=NNC(=O)C1CCC(=O)N/N=C/C(Br)=C/c1ccccc1 (stereo not drawn)	-8.8	16.9	-27.8	20.8%	4.6
Cc1c(C(=O)Oc2ccc(-c3cnc4ccccc4n3)cc2)cccc1[N+](=O)[O-]	-9.7	44.5	-38.8	-4.1%	-2.1
CC1CCCN(C(c2ccccc2)c2sc3ncnn3c2O)C1 (stereo not drawn)	-4.6	-2.8	nt	-2.5%	-2.1	Arbovirus anti repeat=7.8

7 compounds drawn at random from those above, as already listed:
SMILES	Arbovirus anti	Mtb bLac sens	YopH inh	Mtb growth	RecA splice inh	others
CC(=O)c1c(C)nc(-c2ccc(Cl)cc2)nc1NC(=O)C(C)C	2.4	-1.3	-8.9	-6.8%	-1.0
COc1cccc2cc(C(=O)NCc3ccc(Cl)cc3)c(=N)oc12	nt	66.2	nt	nt	-0.6
CC(=O)NC(Cc1cccc(F)c1)C(=O)NC1CCN(C(=O)c2cccc(C)c2)CC1 (stereo not drawn)	0.3	0.0	nt	-6.0%	-5.0
CCCCNC(=O)c1cc(-c2ccc(OC)c(OC)c2)on1	0.1	-0.2	-15.0	11.1%	-8.3	Arbovirus anti repeat=2.6
CCOc1ccc(CCNC(=O)c2cnccn2)cc1OCC	nt	6.8	nt	nt	-2.6
COc1ccc(CCNC(=O)c2cc3c(=O)n4cccc(C)c4nc3n(CC3CCCO3)c2=N)cc1 (stereo not drawn)	nt	18.3	nt	nt	1.7
CC1=NNC(=O)C1CCC(=O)N/N=C/C(Br)=C/c1ccccc1 (stereo not drawn)	-8.8	16.9	-27.8	20.8%	4.6

Other entries:
SMILES	Arbovirus anti	Mtb bLac sens	YopH inh	Mtb growth	RecA splice inh	others
O=C(C[n+]1ccc(C(=O)N/N=C/c2ccc(OCc3ccccc3)cc2)cc1)c1ccccc1	2.7	98.8	-22.2	?	-1.7
Clc1ccc(CO/N=C2\CCCc3nonc32)cc1	-6.5	2.4	-9.8	5.2%	0.4
COC(=O)C1C(=O)C(C(=O)c2ccc([N+](=O)[O-])cc2)C(=O)CC1(C)C (stereo not drawn)	nt	-1.3	nt	nt	2.1
Cc1cc(Nc2cccc(Cl)c2)n2ncnc2n1	-2.2	4.0	-28.5	nt	0.7	Arbovirus anti repeat=3.7
Cc1ccc2oc(C(=O)N(C)Cc3ccc(C)o3)c(C)c2c1	nt	6.4	nt	nt	-0.8
Cc1ccc2c(CC(=O)Nc3ccc(N4CCN(C)CC4)cc3C)coc2c1	-40.3	6.0	19.5	2.3%	0.2
O=C(NCc1ccccc1)c1ccc(NC(=O)c2ccco2)cc1	nt	-5.3	nt	nt	0.1
O=C(CSCc1ccc(F)cc1)Nc1ccccc1	-7.9	71.4	-32.9	6.8%	0.6
COc1ccccc1NC(=O)c1ccc(NS(=O)(=O)c2c(C)noc2C)cc1	2.8	40.1	-13.0	-8.0%	1.5
O=C(Cn1c(-c2ccco2)nc2ccccc21)N1CCCCC1	3.5	-5.2	-30.7	-1.5%	1.5
CC(C)(C)c1ccc(S(=O)(=O)O/N=C2/CCCCC2c2ccc([N+](=O)[O-])cc2[N+](=O)[O-])cc1 (stereo not drawn)	6.6	6.2	-14.4	3.9%	-5.9
O=C(CSc1nnc(Cc2ccc3c(c2)OCO3)n1C1CCCCC1)NC1CCCC1	-2.5	0.4	-24.9	0.5%	3.2
Cc1nc(Nc2nc(-c3ccccc3)cc(=O)[nH]2)nc2ccccc12	nt	0.0	-20.5	7.4%	-1.1
